Bioassay records from PubChem.
SmPrx2 inh = Schistosoma mansoni Prx2 inhibition. S. mansoni Prx2 activity coupled to TGR/GSH (TGR is thioredoxin glutathione reductase), NADPH fluorescence loss, qHTS; some inactives read as strong as hits. Potency, µM. actives 0.07% (n = 65,000). AID 448; active means full or partial inhibition curve with a strong effect at the top dose; inconclusive means weaker partial or single-point curve; inactive means no accepted curve; note: series up to 57 µM; many of its hits are not listed in these tables
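Enzyme mix: 100 uM NADPH, 25 nM TGR, 700 uM GSH, 50 nM Prx2 in 100 mM phosphate pH 7.4, 10 mM EDTA, 0.01% Tween-20. 15 min RT with compound; NADPH/GSH added, H2O2 starts reaction; NADPH fluorescence read 8 min.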
Anthrax LT inh = inhibitors of anthrax lethal toxin internalization; actives 0.67% (n = 70,000); Potency, µM (doses to about 40 µM), inactives show top-dose activity change, negative = inhibition, hits mostly inhibitors; Cells, anthrax lethal toxin internalization, FRET ratio (460/530); active = well fitted falling ratio curve with the 530 nm signal flat; inconclusive = other ratio curves, or a change in one channel alone; inactive = flat curves in the ratio and both channels; the % refers to the ratio; note: % is set by controls: 0 for no effect and ±100 for the full control effect; nearly all actives have a fitted effect of over 50% in size; tested in ME-180 cells; beta-lactamase reporter
* = called active by the depositor; ? = inconclusive; · = not tested or not shown; [ ] = dose if it differs, or a comment. Potency is the fitted concentration of half-maximal effect.

SMILES	SmPrx2 inh	Anthrax LT inh
CC(=O)[C@H](C(=N)C#N)C(=O)Nc1ccccc1	>11	4%[8 µM]
CCOC(=O)N1CCC(NC(=O)c2cccnc2SC)CC1	>57	-2%
c1ccc(-c2csc3ncn4cnnc4c23)cc1	·	16%
c1ccc(-c2noc(-c3cccnc3)n2)nc1	>57	12%
O=C(Nc1c[nH]c(=O)[nH]c1=O)Oc1ccccc1	>57	-7%[8 µM]
Cc1nc(CNS(=O)(=O)c2ccc3c(c2)CCCC3)cs1	>57	-21%
CC(C)(C)OC(=O)N1CCC[C@H]1C(=O)NCC1CCC(C(=O)O)CC1 (some centres not stated)	>57	?
O=S(=O)(c1cccs1)n1nnc2ccccc21	·	?
CCOc1cc2[nH]c(=S)n(CCCC(=O)N3CCC4(CC3)OCCO4)c(=O)c2cc1OCC	>57	11%
CCC(=O)N1CCN=C1SCc1ccccc1Cl	>57	8%
Cn1cnc([N+](=O)[O-])c1Sc1nc(N)nc2c1ncn2[C@H]1C[C@H](O)[C@@H](CO)O1	>57	7%[8 µM]
Fc1ccc(CN2CCSCC2)cc1Br	>57	·
COc1ccc(C2=NOC(C(=O)Nc3ccc(C(C)=O)cc3)C2)cc1OC (configuration not stated)	>57	-4%
Nc1nnc(COc2ccc(Br)cc2Br)s1	>57	2%
COc1cccc(C2C(C(=O)c3cccs3)=C(O)C(=O)N2CCN(C)C)c1OC (configuration not stated)	>57	0%
c1ccc(OCCn2cnc3ccccc32)cc1	>57	-3%
CCOC(=O)c1ccc(NC(=O)N2CCN(c3ccccn3)CC2)cc1	>57	-10%
CCC(=O)N1CCN(c2ccccc2NC(=O)c2cccc(C)c2)CC1	·	?
CCOC(=O)C1CCN(C(=O)CN(c2ccc(Cl)c(C(F)(F)F)c2)S(C)(=O)=O)CC1	·	?
CC(=O)c1cccc(NC(=O)N2CCCc3ccccc32)c1	>57	18%
O=C(NCC(c1cccnc1)N1CCN(c2ccc(F)cc2)CC1)c1cccc(Cl)c1 (configuration not stated)	>57	-5%
CC#N	·	-4%
O/N=C1\CCCc2oc3c(c21)CCCC3	>57	?
CCN(CC)C(=O)CSc1nc(C)cc(-c2cccs2)c1C#N	·	-18%
Cc1ccccc1C1=NCC(=O)N(CC(=O)NCc2ccco2)c2sc3c(c21)CCCC3	>57	?
COc1ccc(CNC(=O)C(C#N)c2nc3ccccc3nc2N2CCN(C)CC2)cc1 (configuration not stated)	>57	3%
O=c1cnc2cnc(N3CCOCC3)nc2n1CCc1ccccc1	>57	?
CCC(=O)Nc1nc2ccccc2n1CCN1CCOCC1	·	-2%
CC(=O)c1ncnn1CC(=O)c1ccc(Cl)cc1Cl	>57	4%
O=C1NC2(Nc3ccccc31)C(=O)Nc1ccccc12 (configuration not stated)	·	-5%
O=C(COc1ccccc1)N1CCNC1=O	>57	0%
COc1cccc(C(=O)N(CN2CCCC2=O)c2ccccc2OC)c1	>57	0%

Of the compounds above, four contain a cyano group:
SMILES	SmPrx2 inh	Anthrax LT inh
CC(=O)[C@H](C(=N)C#N)C(=O)Nc1ccccc1	>11	4%[8 µM]
CC#N	·	-4%
CCN(CC)C(=O)CSc1nc(C)cc(-c2cccs2)c1C#N	·	-18%
COc1ccc(CNC(=O)C(C#N)c2nc3ccccc3nc2N2CCN(C)CC2)cc1 (configuration not stated)	>57	3%

(listing goes on)
SMILES	SmPrx2 inh	Anthrax LT inh
CCCC(CCC)C(=O)Nc1ccncc1	>57	?
CC(=O)NCCSC(=O)c1ccc(F)cc1	·	2%
CCCCCC(=O)Nc1ccc(N2CCN(CC)CC2)c(Cl)c1	>57	-18%
O=C(c1cccc(-n2cnnn2)c1)N1CCOCC1	>57	17%
CC(C)C(=O)Nc1cccc(-c2nc3ccccc3o2)c1	>57	8%
Fc1cnc(N2CCN(c3ccccc3)CC2)nc1N1CCN(c2ccccc2)CC1	>57	9%
Cc1cc(N2CCC(C(=O)NC3CC3)CC2)nc(-c2ccccc2)n1	>57	-9%
COc1ccc(-c2nc3cnc(Oc4ccccc4)nc3n(Cc3cccs3)c2=O)cc1	>57	?
O=C(Nc1ccc(F)cc1F)c1noc2c1CCC2	>57	8%
CCCS(=O)(=O)N1CCC(C(=O)NCCc2ccc(OC)c(OC)c2)CC1	>57	4%
CCOC(=O)C1CCN(C(=O)CCc2ccccc2)CC1	>57	25%
CCOC(=O)c1sc2ccc(S(=O)(=O)N3CCCCC3)cc2c1N	>57	?
COc1ccc(N(CC(=O)Nc2ccc3c(c2)OCCO3)S(C)(=O)=O)c(OC)c1	>57	0%
C=C1C(CCl)(CCl)C2(Cl)C(Cl)C(Cl)C1(Cl)C2(Cl)Cl (configuration not stated)	·	?
O=C1NC(=S)NC(=O)C1=Cc1cccc2cc3ccccc3cc12	>57	?
O=C(NCCN1CCOCC1)c1cc2ccccc2o1	>57	1%

The results go on.
Order of results – SmPrx2 inh	Anthrax LT inh
> O=C(NCc1ccccc1)c1cccnc1N1CCOCC1
    >57	-6%
> c1ccc2c(c1)c1cccc3ccc4cccc2c4c31
    ·	?
> C[C@@H](C(=O)Nc1ccc2ccccc2c1)[C@@H]1C[C@@]1(C)[C@@H](NC(=O)OCc1ccccc1)c1ccccc1
    >57	?
> Cc1cc(OCC(=O)NCCCN2CCOCC2)cc(C)c1Cl
    >57	-19%
> COc1ccc(NC(=O)N2CCCC2C(=O)Nc2ccc(C)c(Cl)c2)cc1 (configuration not stated)
    >57	-10%
> CC(=O)NBr
    >57	-20%
> Cc1cc(C)nc(N2CCC(C(=O)Nc3ccc4c(c3)CCC4)CC2)n1
    >57	?
> O=C(NCCc1ccccc1)c1ccccc1NS(=O)(=O)N1CCCC1
    >57	13%
> COc1cccc(-c2nccc(NCc3cccs3)n2)c1
    >57	?
> CCCC[C@@H]1C[C@H]1[C@@H](NP(=O)(c1ccccc1)c1ccccc1)c1ccccc1OC
    ·	13µM*
> CCOC(=O)c1cc(CC)sc1N
    >57	-8%
> c1ccc(OCCN2C3=NCCN3c3ccccc32)cc1
    >57	-5%
> Cc1ccc2c(c1)NC(=O)C(CC(=O)N(C)Cc1ccccc1)O2 (configuration not stated)
    >57	-13%
> Cc1ccc(S(=O)(=O)N2CCN(C(=O)c3ccc(OCc4c(C)noc4C)cc3)CC2)cc1
    ·	9%
> CCOC(=O)c1cnn(-c2ccccc2)c1NC(=O)c1ccccc1
    ·	-6%
> O=C(CSc1nnc(-c2ccoc2)o1)N1CCOCC1
    >57	-15%
> O=C(CNC(=O)c1ccccc1C(=O)O)c1ccccc1
    >57	-7%
> Cc1cc(O)c(-c2cc(O)c(C)cc2O)cc1O
    >57	?
> Cn1cnc2cc(OC(=O)c3ccccc3)ccc21
    >57	-8%
> COc1ccc(CCN(Cc2cc3cc4c(cc3[nH]c2=O)OCO4)C(C)=O)cc1OC
    >57	-12%
> O=CC=O
    ·	2%
> COc1ccc(CNc2ncnc3ccc(-c4ccccc4CN(C)C)cc23)c(OC)c1
    >57	?
> Cc1cc(C)n(CC(O)Cn2c3ccccc3c3ccccc32)c(=O)n1 (configuration not stated)
    >57	-4%
> CCCCN(CCCC)C(=O)CN(C)S(=O)(=O)c1ccc2c(c1)n(C)c(=O)c(=O)n2C
    >57	10%
> CC(=O)OC[C@@H]1O[C@H](C/C=N\OC[C@@H](O)[C@H]2O[C@H]3OC(C)(C)O[C@H]3[C@@H]2O)C=C[C@@H]1OC(C)=O
    ·	-9%[8 µM]
> CC(C(=O)NC1CCCC1)N(Cc1ccc2c(c1)OCO2)C(=O)c1snc(C(N)=O)c1N (configuration not stated)
    >57	-18%
> COCc1c(C(=O)OCc2nc(N)nc(Nc3ccccc3C)n2)oc2ccccc12
    >57	-2%
> C=CCSc1nnc(-c2ccc(Cl)cc2Cl)o1
    >57	-26%
> CO[C@H]1COC(=O)C/C=C\[C@H](C)COC(=O)[C@@H](C)NC(=O)C/C=C\[C@@H]1C
    ·	-1%[8 µM]
> O=C(COc1ccccc1F)NC1CC1
    >57	·
> O=C(NCc1cccs1)c1noc2c1CCCC2
    >57	-5%
> Brc1cc2c(cc1Cn1c(-c3cncs3)nc3ccccc31)OCO2
    >57	-3%
> CCOC(=O)c1[nH]c(C)c(C(=O)NCc2ccc(OC)cc2)c1C
    >57	?
> CCn1c(SCC(=O)NCCc2ccc(OC)c(OC)c2)nc2c1c(=O)n(C)c(=O)n2C
    >57	-15%
> CCCCOC(=O)CCNc1n[nH]c(=O)[nH]c1=O
    ·	14%
> Brc1ccc(Oc2ccc(Br)cc2Br)c(Br)c1
    ·	?
> COc1ccccc1CCn1c(=O)c(-c2ccc(Cl)cc2)nc2cncnc21
    >57	?
> CCn1c(CC(=O)Nc2cccc(OC)c2)nnc1SCC(=O)Nc1nccs1
    >57	-2%
> CCOC(=O)c1sc2ncn(C(C)C(=O)OCC)c(=O)c2c1C (configuration not stated)
    >57	2%
> COc1cccc(-c2cc(C(F)(F)F)n3ncc(C(=O)O)c3n2)c1
    >57	6%
> N#Cc1cc2ccccc2nc1SCC(=O)Nc1ccc(S(=O)(=O)N2CCCC2)cc1
    >57	-5%
> CCc1cc(C)cc(OCCNC(=O)c2ncn[nH]2)c1
    >57	?
> O=C1c2oc3ccc(F)cc3c(=O)c2C(c2ccccc2)N1CC1CCCO1 (configuration not stated)
    >57	9%
> COc1cc(OC)c(C2C3=C(CCCC3=O)Nc3nc4ccccc4n32)cc1OC (configuration not stated)
    >57	-2%
> Cc1onc(-c2ccccc2)c1C(=O)n1cccn1
    >57	-4%
> O=C(CCCn1c(=S)[nH]c2cc3c(cc2c1=O)OCO3)N1CCN(c2ccccc2F)CC1
    >57	?
> O=C(Cn1cnc2c(nnn2Cc2ccc(F)cc2)c1=O)N1CCCCC1
    >57	19%
> Cc1ccc(CCNC(=O)C2CCC(=O)N2Cc2cccnc2)cc1 (configuration not stated)
    >57	2%
> CCCCCCC(=O)Cc1cc(OC)c(OC)cc1/C=C(/C(C)=O)C(=O)OC
    ·	-4%[8 µM]
> CCNc1ncc2nc(-c3ccccc3)c(=O)n(Cc3ccc(F)cc3)c2n1
    >57	?
> O=C(c1ccco1)N1CCN(C(=O)C2CCCN(S(=O)(=O)Cc3ccccc3)C2)CC1 (configuration not stated)
    >57	-10%
> CC1CCCN(c2nc3c(c(=O)n(C)c(=O)n3C)n2CCSc2nc3ccccc3o2)C1 (configuration not stated)
    >57	-5%
> COc1ccc(NC(=O)c2ccc3c(=O)n(Cc4ccco4)c(=S)[nH]c3c2)c(OC)c1
    >57	-2%
> COC(=O)C(CCCCNC(=O)OCc1ccccc1)NC(=O)CN (configuration not stated)
    >57	30%
> COc1ccc(C(=O)COC(=O)CCN=C2NS(=O)(=O)c3ccccc32)cc1OC
    >57	13%
> CC(=O)Nc1ccc(S(=O)(=O)N2CCN(S(=O)(=O)N3CCCCCC3)CC2)cc1
    >57	-2%
> CCCC(=O)N(Cc1cc2cc(C)ccc2[nH]c1=O)c1ccccc1OC
    ·	-3%
> Cn1ncc2c(Cl)ncnc21
    >57	-5%[8 µM]
> COc1ccc(NC(=O)N2CCC(c3nc(-c4cccs4)no3)CC2)cc1
    >57	1%
> CCCN(CCC)S(=O)(=O)c1ccc(C(=O)N2CCC(=O)c3ccccc32)cc1
    >57	?

Three structures out of the list, ordered by molar mass, lowest first:
Order of results – SmPrx2 inh	Anthrax LT inh
> Cn1ncc2c(Cl)ncnc21
    >57	-5%[8 µM]
> CO[C@H]1COC(=O)C/C=C\[C@H](C)COC(=O)[C@@H](C)NC(=O)C/C=C\[C@@H]1C
    ·	-1%[8 µM]
> O=C(c1ccco1)N1CCN(C(=O)C2CCCN(S(=O)(=O)Cc3ccccc3)C2)CC1 (configuration not stated)
    >57	-10%

(more compounds)
Order of results – SmPrx2 inh	Anthrax LT inh
> CCc1cccc2c(=O)c(C(=O)NCCN3CCOCC3)c[nH]c12
    >57	-1%
> CC[C@H]1[C@@H]2C[C@@H]3[C@@H]4N(C)c5ccccc5[C@@]45C[C@@H]([C@H]2[C@@H]5O)N3[C@@H]1O
    >57	?
> CCc1nnc(SCc2cn3c(C)cc(C)nc3n2)n1N
    >57	0%
> Cc1ccc(S(=O)(=O)O[C@H]2C[C@@H](C(C)(C)C)CC[C@@H]2c2ccccc2)cc1
    >57	?
> Cc1ccnc(-n2c(-c3ccco3)nc3ccccc3c2=O)c1
    >57	1%
> Cc1cc(C)n2nnnc2c1C#N
    >57	6%
> COC(=O)[C@@H]1C[C@H]1[C@@H](NP(=O)(c1ccccc1)c1ccccc1)c1ccccc1
    >57	?
> Cc1cc(C)n(S(=O)(=O)c2cccc(Cl)c2Cl)n1
    >57	?
> COC(=O)c1nnn(CC(=O)Nc2cccc(Cl)c2)c1C(=O)OC
    >57	-14%
> CN(C)CCCN1C(=O)C(O)=C(C(=O)c2cccs2)C1c1ccccn1 (configuration not stated)
    >57	?
> Cc1cccc2nc(=S)n(C(=O)c3ccco3)n12
    >57	·
> Brc1ccc(CSc2ncnc3nc[nH]c23)cc1
    >57	-8%
> CCN1CCN(c2cc(C)c3cc(NC(=O)c4cnccn4)ccc3n2)CC1
    >57	?
> COC(=O)C1CCN(C(=O)COc2ccc(Cl)cc2)CC1
    >57	9%
> Cc1ccc(C)c(CN2C(=O)C(C)Oc3ccc(C)cc32)c1 (configuration not stated)
    >57	2%
> Cc1ccccc1NC(=O)C1CC(=O)N(c2ccccc2F)C1 (configuration not stated)
    >57	11%
> CC(C)(C)CC(C)(C)c1ccc(O)c(C[N+](C)(C)[O-])c1
    >57	4%[8 µM]

Some of the compounds tested; rates above refer to the full screens.
